Source: PubChem BioAssay (Broad Institute)
Hedgehog cleavage: Hh protein inhibition, biochemical readout – plate reader, single concentration, primary screen (AID 588832); inhibition, % at 30.3 µM; 8,000 tested, under 10 active; Biochemical plate reader assay, Hedgehog inhibition; stronger effect = higher value; in the data active means inhibition from about 57%;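 further: 0% = neutral control wells and 100% = positive control wells; cholesterol-driven self-cleavage of fly hedgehog protein by fluorescence polarization; read one hour after cholesterol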
Active calls of the source: *.

structure	Hedgehog cleavage
Cc1ccc(NS(=O)(=O)c2ccc3c(c2)NC(=O)C(C)C(=O)N3)c(Cl)c1 (stereo unspecified)	6
Cc1nn(CCCC(=O)N2CCc3ccccc3C2)c(=O)c2cc3sccc3n12	4
CCN1CCN(CCCNC(=O)C2CCCN(c3nc4c(C)cc(C)cc4s3)C2)CC1 (stereo unspecified)	4
O=C1C2CCCN2C(c2ccc(F)c(F)c2)N1c1cccc(Cl)c1 (stereo unspecified)	15
O=C(Nc1nccs1)C1CCCN(S(=O)(=O)c2cccc3cccnc23)C1 (stereo unspecified)	-3
O=C(c1ccc(COc2ccccc2Cl)o1)N1CCN(c2ccccc2)CC1	4
c1ccc2cc3[nH]c(CN4CCCCC4)nc3cc2c1	3
CC(C)(C)c1ccc(S(=O)(=O)N2CCCCC2C(=O)NCc2ccccn2)cc1 (stereo unspecified)	15
Cc1ccc2c(c1)NC(=O)C(CC(=O)NCCN(C)C)O2 (stereo unspecified)	4
COc1cc(Nc2cc(C)nc3nc(C)nn23)cc(OC)c1OC	10
COc1cccc(Cn2nnc(C(=O)NCc3ccc(F)cc3)c2N)c1	5
COc1ccc(C2CC(c3ccc(Cl)cc3Cl)n3nc(N)nc3N2)cc1 (stereo unspecified)	17
Cc1ccc(C2=NS(=O)(=O)N(C)C(C(=O)NCc3ccccn3)=C2)cc1	12
COc1ccc(C2N(c3cccc(Cl)c3)C(=O)C3CCCN32)cc1 (stereo unspecified)	10
Cc1ccc(NC(=O)[C@H](Cc2c[nH]c3ccccc23)NC(=O)[C@@H]2Cc3ccccc3CN2)c(C)c1	3
CCOc1ccc(C2CC(c3cccc(OC)c3)Nc3ncnn32)cc1 (stereo unspecified)	17
Cc1oc(-c2ccccc2F)nc1CS(=O)(=O)CC(=O)NCc1ccco1	6
Cc1cc(C(=O)NCc2ccc3c(c2)OCO3)n(-c2ccccc2)n1	4
CCCc1cc(C(=O)Nc2sc3c(c2C(=O)OCC)CCCC3)no1	6
Cc1nc2sc(C(c3cccs3)N3CC(C)CC(C)C3)c(O)n2n1 (stereo unspecified)	19
CN1CCN(C(=O)c2ccc3c(c2)N(Cc2ccc(Cl)cc2)C(=O)c2ccccc2S3=O)CC1 (stereo unspecified)	20
CCc1cc(=O)oc2c3c(cc(OCC(=O)NCc4ccccn4)c12)OC(C)(C)CC3	5
COc1cccc(NS(=O)(=O)c2c(C)nc3sccn3c2=O)c1	0
O=C(c1oc(=O)c2ccccc2c1-c1ccccc1)N1CCN(C2CCCCC2)CC1	8

Filtered by structure, the entries above containing two or more sulfur atoms.
structure	Hedgehog cleavage
O=C(Nc1nccs1)C1CCCN(S(=O)(=O)c2cccc3cccnc23)C1 (stereo unspecified)	-3
Cc1nc2sc(C(c3cccs3)N3CC(C)CC(C)C3)c(O)n2n1 (stereo unspecified)	19
COc1cccc(NS(=O)(=O)c2c(C)nc3sccn3c2=O)c1	0

Other records follow:
structure	Hedgehog cleavage
CN1C(CC(=O)c2ccccc2)CCCC1CC(O)c1ccccc1 (stereo unspecified)	7
Cc1c(Cl)cccc1NS(=O)(=O)c1cn(C)c(=O)n(C)c1=O	6
COc1ccc(OC)c2c1cc(C(=O)N[C@H](C(=O)N1CCC[C@H]1C(=O)O)C(C)C)n2C	8
COc1ccc(CNC(=O)[C@H](C)NC(=O)C2CCN(C(=O)[C@@H](N)Cc3ccccc3)CC2)cc1	0
CCOC(=O)N1CCN(C(=O)C2CCCN(S(=O)(=O)c3cccnc3)C2)CC1 (stereo unspecified)	4
COc1ccc(N2C(=O)C3CCCN3C2c2cc(OC)c(OC)cc2OC)cc1 (stereo unspecified)	21
Cc1[nH]c2ccccc2c1SCC(=O)N1CCCc2ccccc21	2
COc1ccccc1N1CCN(C(CNC(=O)c2ccco2)c2cccnc2)CC1 (stereo unspecified)	15
Cc1c(N(C)C)c(=O)n(-c2ccccc2)n1C	4
CC(C)CCOC(=O)C1C2C=CC3(CN(Cc4cccs4)C(=O)C13)O2 (stereo unspecified)	13
CC(=O)O[C@H]1CC(=O)OC(C)(C)C2CC(=O)[C@]3(C)C(CC[C@@](C)([C@@H](O[C@@H]4O[C@H](CO)[C@@H](O)[C@H](O)[C@H]4O)c4ccoc4)[C@@]34O[C@@H]4C(=O)O)[C@]21C (stereo partly specified)	2
Cc1cc(C)cc(NC(=O)[C@H](Cc2c[nH]c3ccccc23)NC(=O)[C@@H]2Cc3ccccc3CN2)c1	8

Three structures from above, arranged by length of the SMILES, high to low.
structure	Hedgehog cleavage
CC(=O)O[C@H]1CC(=O)OC(C)(C)C2CC(=O)[C@]3(C)C(CC[C@@](C)([C@@H](O[C@@H]4O[C@H](CO)[C@@H](O)[C@H](O)[C@H]4O)c4ccoc4)[C@@]34O[C@@H]4C(=O)O)[C@]21C (stereo partly specified)	2
Cc1cc(C)cc(NC(=O)[C@H](Cc2c[nH]c3ccccc23)NC(=O)[C@@H]2Cc3ccccc3CN2)c1	8
CCOC(=O)N1CCN(C(=O)C2CCCN(S(=O)(=O)c3cccnc3)C2)CC1 (stereo unspecified)	4

(cont.)
structure	Hedgehog cleavage
COc1ccc(C(=O)N2CCc3cc4c(cc3C2C)OCCCO4)cc1 (stereo unspecified)	0
Cc1ccc2c(c1)N(CC(=O)NC1CCC(C)CC1)C(=O)c1cccnc1O2 (stereo unspecified)	15
CC1CCN(C(=O)CSc2nnc(Cc3cccn3C)n2-c2ccc(F)cc2)CC1	15
CC1CCc2nn(CC(=O)NCCN3CCOCC3)cc2C1 (stereo unspecified)	12
C#CC(C)(C)NC(=O)CSc1nc2c(c(=O)n(C)c(=O)n2C)n1CCCC	8
CCc1cccc(NC(=O)CCC(=O)N2CCSc3ccccc32)c1	20
COc1cc2cc(Oc3ccc4ccc(=O)oc4c3)c(=O)oc2cc1OC1OC(COC(=O)CC(C)(O)CC(=O)O)C(O)C(O)C1O (stereo unspecified)	16
CC(C)=CCOc1ccc2c(C)c(CCC(=O)N3C[C@H]4C[C@@H](C3)c3cccc(=O)n3C4)c(=O)oc2c1C	-2
O=C(NCCN1C(=O)C2C3C=CC(C3)C2C1=O)Nc1ccc(Br)cc1 (stereo unspecified)	15
CCOc1ccc(CCNC(=O)CN2C(=O)c3cccnc3Oc3ccc(C)cc32)cc1OCC	11
Cc1nc2sccn2c(=O)c1S(=O)(=O)NC(C)c1ccccc1 (stereo unspecified)	3
CN1CCC(NC(=O)c2cccs2)CC1	3

Quoted at random: 4 records from the list, in no set order.
structure	Hedgehog cleavage
COc1ccc(CNC(=O)[C@H](C)NC(=O)C2CCN(C(=O)[C@@H](N)Cc3ccccc3)CC2)cc1	0
COc1ccccc1N1CCN(C(CNC(=O)c2ccco2)c2cccnc2)CC1 (stereo unspecified)	15
Cc1ccc(NS(=O)(=O)c2ccc3c(c2)NC(=O)C(C)C(=O)N3)c(Cl)c1 (stereo unspecified)	6
CCc1cc(=O)oc2c3c(cc(OCC(=O)NCc4ccccn4)c12)OC(C)(C)CC3	5

(more compounds)
structure	Hedgehog cleavage
CCN(c1ccccc1)S(=O)(=O)c1ccc2c(c1)C(C)(C)C(=O)N2C	3
CCOc1ccccc1NC1c2ccccc2C(=O)N1c1ccc(C)cn1 (stereo unspecified)	11
COc1ccc(CCNC(=O)C(=O)NCC2OCCN2S(=O)(=O)c2ccc(C)cc2)cc1 (stereo unspecified)	0
O=C(Cn1cc2c(n1)CCCCC2)Nc1ccc(F)cc1F	-1
CCOC(=O)c1[nH]c(C)c(C(=O)NC2CCCC2)c1C	11
c1ccc2nc(-c3ccc4c(c3)OCO4)ccc2c1	3
O=C(c1ccc2c(Cl)c3c(nc2c1)CCCC3)N1CCN(c2ccc(F)cc2)CC1	0
CC1CCCC(NS(=O)(=O)c2cc3c(cc2Cl)NC(=O)CO3)C1C (stereo unspecified)	25
CC(=O)c1ccc(NC(=O)CSc2nc3nc(C)cc(C)n3n2)cc1	9
COc1ccc(N2CCN(Cc3nc4c(c(=O)n(C)c(=O)n4C)n3Cc3cccc(C)c3)CC2)cc1	5
COc1ccc(NC(=O)[C@H](Cc2c[nH]c3ccccc23)NC(=O)[C@@H]2Cc3ccccc3CN2)cc1	9
COc1cccc(C2CC(c3cccs3)=NN2C(=O)CSC2=NN3CCCC(=O)N=C3S2)c1OC (stereo unspecified)	15
S=C1NCCC12C(=S)Nc1ccccc12 (stereo unspecified)	5
CCCCOC(=O)C1C2C=CC3(CN(CCc4ccccc4)C(=O)C13)O2 (stereo unspecified)	0
Cc1cccc(-c2nc(CS(=O)CC(=O)NCC3CCCO3)c(C)o2)c1 (stereo unspecified)	10
COc1ccc(-c2cc3ccc(OCC(=O)NCC4CCC(C(=O)O)CC4)cc3oc2=O)cc1 (stereo unspecified)	9
CSCCOC(=O)c1[nH]c2c(c1C)C(=O)CC(c1ccco1)C2 (stereo unspecified)	19
Cc1csc(NC(=O)CSc2nnc(Cc3cccn3C)n2CCc2ccccc2)n1	-1
CCc1ccc(N2CC34C=CC(O3)C(C(=O)OC)C4C2=O)cc1 (stereo unspecified)	22
CC1CCCC(C)N1c1nnc(N)s1 (stereo unspecified)	17
Cc1cc(Nc2cccc(F)c2)n2nc(C)nc2n1	-3
COc1ccc(NS(=O)(=O)c2cc3c(cc2C)N(C)CCO3)c(OC)c1	9
Cn1c(C2CC(=O)N(Cc3ccccc3)C2)nc2ccccc21 (stereo unspecified)	2
CCC1NC(C(=O)O)Cc2c1[nH]c1ccccc21 (stereo unspecified)	5
O=C(CSc1nc2c(cnn2-c2ccc(F)cc2)c(=O)[nH]1)Nc1nccs1	5
CCCn1c(CN2CCCCC2C)nc2c1c(=O)n(C)c(=O)n2C (stereo unspecified)	4
Cc1cccc(N2CCN(C(=O)CCc3nc4ccccc4[nH]3)CC2C)c1 (stereo unspecified)	0
CN1C(=O)CS(=O)c2ccc(C(=O)NCCC3=CCCCC3)cc21 (stereo unspecified)	12
O=C(NCc1ccccn1)c1ccc2ccccc2n1	5
CC(C)C[C@H](NC(=O)[C@H](Cc1ccccc1)n1c(=O)[nH]c2ccccc2c1=O)C(=O)N1CCC(C(=O)O)CC1	7
CC12CCC(C/C1=N/O)C2(C)C (stereo unspecified)	2
CCN(C(=O)CN(C1=NC2CS(=O)(=O)CC2S1)c1ccc(OC)cc1)c1cccc(C)c1 (stereo unspecified)	5
COc1cccc(C2CC(c3ccc(F)cc3)Nc3nc(N)nn32)c1 (stereo unspecified)	16
Oc1cc(Cl)cc(Cl)c1Cl	4
COc1cccc(-n2c(Cc3cc(=O)[nH]c(=O)[nH]3)nnc2SCC(=O)N2CCCCC2)c1	15
CCOC(=O)N1CCC(N2CC34C=CC(O3)C(C(=O)Nc3ccc(F)cc3)C4C2=O)CC1 (stereo unspecified)	10
O=C1CN(C(=O)NCC(=O)N[C@H](Cc2ccccc2)C(=O)O)c2ccccc2N1	5
Cc1ncc(CO)c2cc(S(=O)(=O)c3ccc(F)cc3)c(=O)oc12	2
CC(C)Cc1cc(C(=O)Nc2ccc3c(c2)OCO3)no1	5
Cc1cc(C)c(S(=O)(=O)NCCn2c(C)cc3ccccc32)c(C)c1	4
COc1ccc(OC)c(NC2c3ccccc3C(=O)N2c2cccnc2)c1 (stereo unspecified)	5
CCC(C)NC(=O)CS(=O)Cc1nc(-c2cccc(OC)c2)oc1C (stereo unspecified)	7
Cc1oc(-c2ccccc2Cl)nc1CS(=O)(=O)CC(=O)N1CCOCC1	6
COC(=O)C1C(=O)c2c([nH]c(C(=O)OCC3CCCO3)c2C)CC1C (stereo unspecified)	-3
COc1cc(C2N(c3ccc(F)cc3)C(=O)C3CCCN32)cc(OC)c1OC (stereo unspecified)	11
O=C(Cn1cc2c(n1)CCCCC2)NC1CCCCCC1	10
COc1cccc(-c2nc(CS(=O)(=O)CC(=O)N3CCc4ccccc43)c(C)o2)c1	13
Cc1c(OCC(=O)N2CCC(C(N)=O)CC2)ccc2c3c(c(=O)oc12)CCC3	-5
Cc1ccc(C2=NS(=O)(=O)N(C)C(C(=O)N3CCCCC3)=C2)cc1	10
Cn1c(Cn2c(=O)sc3ccccc32)nnc1SCC(=O)NC1CCCCC1	20
CC(NC(=O)[C@H](C)N1C(=O)N2CCc3c([nH]c4ccccc34)[C@@]2(C)C1=O)c1ccccc1 (stereo partly specified)	-2
COc1ccc(N2CC(C(=O)NC3CC(C)(C)NC(C)(C)C3)CC2=O)cc1 (stereo unspecified)	0
c1ccc2scnc2c1	0
CC(=O)Nc1ccc(S(=O)(=O)N2CCN(c3ccc(C)c(Cl)c3)CC2)cc1	0
CCN(CCCNC(=O)Cn1cc2c(n1)CCCC2)c1cccc(C)c1	2
Oc1c(C(c2ccco2)N2CCC3(CC2)OCCO3)sc2ncnn12 (stereo unspecified)	3
CC[C@H](C)/C=C(C)/C=C/C(=O)Cc1cc(O)c(C)c(O)c1C=O	3
CCOC(=O)c1[nH]c(C)c(CN(CCc2ccccc2)S(C)(=O)=O)c1C	8
COC(=O)c1[nH]c2c(c1C)C(=O)CC(c1cc(OC)ccc1OC)C2 (stereo unspecified)	25
COc1cc(OC)c(NC(=O)[C@@H]2CCC(=O)N2C2OC(=O)c3c2ccc(OC)c3OC)cc1Cl (stereo partly specified)	9

Carrying on:
structure	Hedgehog cleavage
CCOc1ccc(NC(=O)CC2C(=O)N(c3cccc(OC)c3)C(=O)N2C(C)C)cc1 (stereo unspecified)	8
O=C1c2ccccc2C(Nc2ccc(S(=O)(=O)N3CCCCC3)cc2)N1Cc1ccco1 (stereo unspecified)	29
COCCCNC(=O)c1cc2c(=O)n(C)c3ccccc3c2n1C	15
CCCCNC(=S)NCc1ccc2[nH]c3c(c2c1)CCCC3	5
O=C(c1ccco1)N1CCN(C(=O)c2oc(=O)c3ccccc3c2-c2ccccc2)CC1	17

These rows are one share of the data; the hit share may differ from the screen's.
